Screening results from PubChem BioAssay.
HPGD block: qHTS Assay for Inhibitors of HPGD (15-Hydroxyprostaglandin Dehydrogenase); 15-hydroxyprostaglandin dehydrogenase [NAD(+)] (Homo sapiens), P15428; purified HPGD, NADH fluorescence kinetic, PGE2 substrate; Potency, µM, without a hit: at the top dose activity change, negative = inhibition, most hits filed as inhibitors; 4.3% of 150,000 active; AID 894, 2007; active = well fitted inhibition curve with a large enough effect (not every such curve was filed as active); inconclusive = small, poorly fitted or top-dose-only effect, or another doubt; inactive = no such curve, though single readings can be large or run the other way;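 further: top concentration of the series not given in the record; plate controls included wells without enzyme; inactives centre near -10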
Target sequence (P15428 whole entry, looked up): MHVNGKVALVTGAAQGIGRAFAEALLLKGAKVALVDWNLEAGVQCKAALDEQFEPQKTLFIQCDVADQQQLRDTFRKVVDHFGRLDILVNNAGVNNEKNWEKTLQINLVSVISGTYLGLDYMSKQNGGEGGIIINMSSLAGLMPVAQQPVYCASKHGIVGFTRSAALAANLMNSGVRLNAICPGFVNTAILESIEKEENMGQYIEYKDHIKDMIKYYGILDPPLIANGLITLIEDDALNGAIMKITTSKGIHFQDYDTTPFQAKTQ
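20 nM HPGD preincubated 15 min at room temperature with compound in 50 mM Tris-HCl pH 8, 0.01% Tween 20. Started with 1 mM NAD+ and 30 uM prostaglandin E2; NADH fluorescence (360/450 nm) read 5 times over 30-s intervals, last minus first.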
Starred values were filed as active, the others as inactive; u = inconclusive; & = joins results of further samples; [ ] = remark or other dose. On the % scale 0 is the no-effect control and ±100 the full control effect; potency means the concentration at half of the fitted maximal effect. Not all compounds are listed; rates above refer to the full screens.

A first look:
HPGD block | mol
-6% | O=C(Nc1ncc(Cc2ccc(Cl)cc2Cl)s1)c1ccc([N+](=O)[O-])cc1
-5% | Cc1ccc(S(=O)(=O)N(C)C)cc1NC(=S)NC(=O)C12CC3CC(CC(C3)C1)C2
-1% | CCC(C)(C)n1nnnc1C(c1ccc2ncccc2c1)N1CCN(Cc2ccc3c(c2)OCO3)CC1 (configuration not stated)
-10% | O=S(=O)(Nc1ccc(-c2csc(-c3ccccc3)n2)cc1)c1ccc(F)cc1
-17% | CCOc1ccc(NC(=O)CSC2=C(C#N)C(c3ccc4c(c3)OCO4)CC(=O)N2)cc1 (configuration not stated)
-7% | CC(C)(N)CO[C@H]1C[C@H]2CC[C@@]1(C)C2(C)C
-12% | N#CCC1c2ccccc2CCN1C(=O)Nc1cccc(C(F)(F)F)c1 (configuration not stated)
-12% | CC(C)(C)NS(=O)(=O)c1ccc(CCC(=O)NCc2ccc3c(c2)OCO3)cc1
-18% | COc1ccc(NC(=O)N(Cc2cccs2)Cc2cc3cc4c(cc3[nH]c2=O)OCO4)cc1
-4% | CCCOc1cccc(C(=O)O)c1
u | Cn1c(=N)c(S(=O)(=O)c2ccccc2)cc2c(=O)n3ccccc3nc21
-26% | COc1ccc(C2C3=C(CC(C)(C)CC3=O)Nc3c2c(=O)[nH]c2nc(C)nn32)cc1 (configuration not stated)
-11% | CO[C@]12C(COC(N)=O)C3=C(C(=O)C(C)=C(N)C3=O)N1CC1NC12 (some centres not stated)
-15% | COc1ccccc1N1CCN(CCCCNS(=O)(=O)c2cccc3c(N(C)C)cccc23)CC1
-2% | COC(=O)c1onc(C(=O)c2ccccc2)c1C(=O)OC
-24% | COc1cc(-c2nnc(SCC(=O)N3c4ccccc4Sc4ccccc43)o2)cc(OC)c1OC
2.2µM* | O=C1CN(C(=O)CSc2nnc(Nc3ccccc3)s2)c2ccccc2N1
-9% | CC(C)CNc1nc(=S)nc(N(C)C)[nH]1
-2% | CC1(C)N([O-])C(c2cccs2)=C[N+]1=O
-12% | Cc1cc(=O)oc2cc(OCCCN3C(=O)c4ccccc4C3=O)ccc12
-7% | COc1ccc(-n2nnnc2SCC(=O)NC(=O)Nc2ccc3c(c2)OCCO3)cc1
-1% | CC(C)(C)NC[C@@H](O)COc1ccccc1C1CCCC1
0% | O=C(CN1C(=O)COc2ccccc21)NCCC1=CCCCC1
-4% | Cc1sc2c(=O)n3c(nc2c1C(=O)NC1CCCCC1)CCCCC3
u | CCOC(=O)c1cnc2c(cnn2CC)c1NN=C(C)C
14µM* | Cc1ccccc1Nc1nnc(SCc2cc([N+](=O)[O-])cc3c2OCOC3)s1
-3% | Cc1cccc(C(=O)OCC(=O)Nc2sc3c(c2C#N)CCC3)c1
-3% | CCCCOc1ccc(C(=O)NN2CCN(C)CC2)cc1
u | COC(=O)c1cnn2c(C(F)(F)F)cc(-c3ccco3)nc12

The list itself (from the top)
HPGD block | mol
-6% | O=C(Nc1ncc(Cc2ccc(Cl)cc2Cl)s1)c1ccc([N+](=O)[O-])cc1
-5% | Cc1ccc(S(=O)(=O)N(C)C)cc1NC(=S)NC(=O)C12CC3CC(CC(C3)C1)C2
-1% | CCC(C)(C)n1nnnc1C(c1ccc2ncccc2c1)N1CCN(Cc2ccc3c(c2)OCO3)CC1 (configuration not stated)
-10% | O=S(=O)(Nc1ccc(-c2csc(-c3ccccc3)n2)cc1)c1ccc(F)cc1
-17% | CCOc1ccc(NC(=O)CSC2=C(C#N)C(c3ccc4c(c3)OCO4)CC(=O)N2)cc1 (configuration not stated)
-7% | CC(C)(N)CO[C@H]1C[C@H]2CC[C@@]1(C)C2(C)C
-12% | N#CCC1c2ccccc2CCN1C(=O)Nc1cccc(C(F)(F)F)c1 (configuration not stated)
-12% | CC(C)(C)NS(=O)(=O)c1ccc(CCC(=O)NCc2ccc3c(c2)OCO3)cc1
-18% | COc1ccc(NC(=O)N(Cc2cccs2)Cc2cc3cc4c(cc3[nH]c2=O)OCO4)cc1
-4% | CCCOc1cccc(C(=O)O)c1
u | Cn1c(=N)c(S(=O)(=O)c2ccccc2)cc2c(=O)n3ccccc3nc21
-26% | COc1ccc(C2C3=C(CC(C)(C)CC3=O)Nc3c2c(=O)[nH]c2nc(C)nn32)cc1 (configuration not stated)
-11% | CO[C@]12C(COC(N)=O)C3=C(C(=O)C(C)=C(N)C3=O)N1CC1NC12 (some centres not stated)
-15% | COc1ccccc1N1CCN(CCCCNS(=O)(=O)c2cccc3c(N(C)C)cccc23)CC1
-2% | COC(=O)c1onc(C(=O)c2ccccc2)c1C(=O)OC

The list continues.
HPGD block | mol
-24% | COc1cc(-c2nnc(SCC(=O)N3c4ccccc4Sc4ccccc43)o2)cc(OC)c1OC
2.2µM* | O=C1CN(C(=O)CSc2nnc(Nc3ccccc3)s2)c2ccccc2N1
-9% | CC(C)CNc1nc(=S)nc(N(C)C)[nH]1
-2% | CC1(C)N([O-])C(c2cccs2)=C[N+]1=O
-12% | Cc1cc(=O)oc2cc(OCCCN3C(=O)c4ccccc4C3=O)ccc12
-7% | COc1ccc(-n2nnnc2SCC(=O)NC(=O)Nc2ccc3c(c2)OCCO3)cc1
-1% | CC(C)(C)NC[C@@H](O)COc1ccccc1C1CCCC1
0% | O=C(CN1C(=O)COc2ccccc21)NCCC1=CCCCC1
-4% | Cc1sc2c(=O)n3c(nc2c1C(=O)NC1CCCCC1)CCCCC3
u | CCOC(=O)c1cnc2c(cnn2CC)c1NN=C(C)C
14µM* | Cc1ccccc1Nc1nnc(SCc2cc([N+](=O)[O-])cc3c2OCOC3)s1
-3% | Cc1cccc(C(=O)OCC(=O)Nc2sc3c(c2C#N)CCC3)c1
-3% | CCCCOc1ccc(C(=O)NN2CCN(C)CC2)cc1
u | COC(=O)c1cnn2c(C(F)(F)F)cc(-c3ccco3)nc12
4% | Cc1cc(NC(=O)CCC(=O)N(Cc2cccs2)C(C(=O)NC2CCCC2)c2ccccc2)no1 (configuration not stated)

New compounds follow.
HPGD block | mol
-3% | N/C(=N\OC(=O)COc1ccccc1)c1cccnc1
-8% | CC(C)C(C)NC(=O)COc1ncnc2ccccc12 (configuration not stated)
-14% | CC(NC(=O)C(=O)NN=C1CCCCCCCCCCC1)c1ccccc1 (configuration not stated)
-14% | N#C/C(=C\c1c(Cl)cccc1Cl)c1nc2ccccc2o1
u | CC1(C)S[C@@H]2[C@H](NC(=O)[C@@H](N)c3ccccc3)C(=O)N2[C@H]1C(=O)O[C@H]1OC(=O)c2ccccc21
-9% | COc1ccccc1NC(=S)N1CCN(Cc2ccccc2)CC1
-9% | CCCCSc1nc(C)c(CC(=O)O)c(=O)[nH]1
-20% | O=C(CCSc1ccccc1)N1CCOCC1
1% | Cc1cc(NS(=O)(=O)c2ccc(NC(=O)c3ccco3)cc2)nc(C)n1
-1% | O=C(Nc1ccc(Cl)c(Cl)c1)c1cccc(S(=O)(=O)NCc2cccnc2)c1
-1% | COc1ccc(CN(CC(=O)NCC2CCCO2)C(=O)CNS(=O)(=O)c2ccc(C)cc2)cc1 (configuration not stated)
-3% | COc1ccc(CC(NC(C)=O)C(=O)N2CCN(C(=O)Nc3ccc(Cl)cc3)CC2)cc1OC (configuration not stated)
-7% | CCOc1ccccc1N(CC(=O)OC)S(C)(=O)=O
-4% | N#Cc1cccc(NC(=O)N2CCCC3(CCN(C(=O)c4cccc(F)c4)CC3)C2)c1
-23% | O=C1N=C2SCCN2/C1=C\c1ccccc1Cl

(cont.)
HPGD block | mol
-19% | c1ccc(-c2cc3c(nn2)CCc2nonc2-3)cc1
-7% | O/N=C1\CC/C(=N\O)c2nn(-c3ccccc3Cl)nc21
-11% | N#CCc1ccc(NC(=O)Nc2cccc(Cl)c2)cc1
u | COc1cc(OC)cc(C(=O)Nc2nc(-c3ccccc3)c(-c3ccccc3)o2)c1
-7% | COc1ccc(OC)c(-c2csc(NC(=O)CSc3ccccc3)n2)c1
-15% | COc1cc(S(=O)(=O)NCc2ccccc2)ccc1Br
-10% | CCCCn1c(CNC(=O)CC)nc2ccccc21
-23% | CCN1CCN(c2nc(N)c([N+](=O)[O-])c(Nc3ccc(C)cc3)n2)CC1
-5%&-16%&-7%&-11% | CN1CCN(C2=Nc3ccccc3Oc3ccc(Cl)cc32)CC1
-6% | C=CCNC(=O)CSc1nnc(-c2ccccc2Br)n1-c1cccc(C(F)(F)F)c1
-13% | COCC(=O)Nc1sc2c(c1C(=O)OC)CCCC2
-17% | C/C(CC(O)c1ccc2ccccc2n1)=N/O (configuration not stated)
-9% | COc1ccc(CN(C(=O)c2nsc(Cl)c2Cl)C(C(=O)NC2CCCC2)c2ccc(C)cc2)cc1 (configuration not stated)
-3% | Cc1noc(C)c1S(=O)(=O)N(CC(=O)N1CCc2ccccc21)c1ccc(C(C)C)cc1
-15% | CCN(CC)CC(=O)N1c2ccccc2Sc2ccc(Cl)cc21

Ordered by value in HPGD block (high to low): some entries from above.
HPGD block | mol
4% | Cc1cc(NC(=O)CCC(=O)N(Cc2cccs2)C(C(=O)NC2CCCC2)c2ccccc2)no1 (configuration not stated)
-11% | N#CCc1ccc(NC(=O)Nc2cccc(Cl)c2)cc1
-20% | O=C(CCSc1ccccc1)N1CCOCC1

Following part:
HPGD block | mol
2% | COc1ccc(Br)cc1S(=O)(=O)N(CC(=O)N1CCOCC1)c1ccccc1
-18% | CCOc1cc(C(=O)OCC(=O)Nc2cccc(C)c2)ccc1OCC(=O)N1CCOCC1
-1% | CC(=O)Nc1ccc(Cl)c(C(N)=O)c1
u | CC(C)CNC(=O)c1cccc(NC(=O)c2ccc(NC(=O)c3ccco3)cc2)c1
-7% | COc1cccc(-n2nnnc2SCC(=O)c2ccc(NC(C)=O)cc2)c1
-14% | CS(=O)(=O)N1CCCC(C(=O)NCc2ccco2)C1 (configuration not stated)
-23% | C(=C\c1ccccc1)/CSc1nnc(-c2ccccc2)n1Cc1ccco1
-5% | CC(C)NC(=O)N(O)C1N(Cc2ccc3c(c2)OCO3)C(=S)SC1(C)C (configuration not stated)
-13% | Cc1ccccc1S(=O)(=O)Cc1ccc(C(=O)N2CC(C)CC(C)C2)o1 (configuration not stated)
-3% | CN(C)S(=O)(=O)c1ccc(NC(=O)c2cc(F)c(F)cc2Cl)cc1
-15% | CCN(CC)S(=O)(=O)c1ccc(-c2nnc(SC)o2)cc1
-7% | C[C@H]1CC[C@H]2C(=O)N3[C@H](c4ccccc4Br)[C@@H](C)CC[C@H]3C(=O)N2[C@@H]1c1ccccc1Br
u | CCc1ccc(C(=O)NC2CCCCC2)s1
-17% | O=C(CC1SC2=NCCN2C1=O)Nc1ccccc1 (configuration not stated)
-5% | O=C(N/N=C1\CCCc2ccccc21)c1ccc([N+](=O)[O-])cc1

Later entries:
HPGD block | mol
49%[activator] | Cc1cccc(NC(=O)/C(C#N)=C/c2cn(CC(=O)NCc3ccco3)c3ccccc23)c1C
-11% | COC(=O)c1ccc(NC(=O)CN2CCCC2)cc1
-2% | O=C(c1cnc2n(c1=O)CCS2)N1CCN(C(c2ccccc2)c2ccc(Cl)cc2)CC1 (configuration not stated)
1% | CCn1c(Cc2ccccc2)nnc1SCC(=O)NC1CC1
2% | CSCCC(NC(=O)c1ccco1)C(=O)NCc1ccc(F)cc1 (configuration not stated)
u | Cc1ccc(C2NC(=O)c3c(sc4c3CCN(C)C4)N2)o1 (configuration not stated)
-9% | Clc1ccc(Cn2nnc(-c3ccc(CN4CCOCC4)cc3)n2)cc1
-23% | COc1ccc(N/C(N)=N/c2nc(CSc3ccc(C)cc3)cc(=O)[nH]2)cc1
-10% | COc1ccc(NC(=O)CN2CCN(C3c4ccccc4-c4ccccc43)CC2)cc1
-18% | O=C(CNC(=O)c1ccco1)Nc1cc(Cl)ccc1N1CCOCC1
10µM* | O=C(CSc1ncnc2sc3c(c12)CCCCC3)NCc1ccco1
-1% | C=C1C2CC[C@@]3(C)C(c4ccoc4)OC(=O)C[C@@]13OC1CC(=O)C(C)(C)C(C(O)C(=O)OC)[C@]12C (some centres not stated)
-8% | O=C(CSc1ncnc2c1cnn2-c1ccccc1)Nc1ccccc1
-19% | CC(C)NC(=O)C(=O)NNC(=O)C12CC3CC(CC(C3)C1)C2
-6% | COc1cccc(OCCOCC(O)CN2CCN(Cc3ccc(Cl)cc3)CC2)c1 (configuration not stated)

Remaining list, next part.
HPGD block | mol
-3% | CC1CN(C(=O)CN2C(=O)c3ccccc3S2(=O)=O)CC(C)O1 (configuration not stated)
-6% | CCCCNC(=O)N1CCOCCOCCN(C(=O)NCCCC)CCOCCOCC1
u | COc1ccc(/C=C(\C#N)C(=O)OCC(=O)Nc2c(C)cccc2C(C)C)cc1
u | Cc1ccc(C)c(NS(=O)(=O)c2cc(C(=O)Nc3ccccc3-c3ccccc3)ccc2C)c1
u | Cc1nn(Cc2ccc(C(=O)Nc3ccc(C(=O)OC(C)C)cc3)o2)c(C)c1Cl
-9% | CC1(C)Cc2c(sc3c2c(=N)n(Cc2ccco2)c(=O)n3CC(=O)Nc2ccccc2)CO1
-20% | Cc1nn(-c2nc3ccccc3s2)c(N)c1-c1ccc(Cl)cc1
11% | CCOc1ccc(-n2nnnc2-c2nc3ccccc3s2)cc1
-17% | CCOC(=O)c1c(C2CC2)csc1NC(=O)COC(=O)c1cc(OC)c(OC)cc1[N+](=O)[O-]
-3% | O=C(COC(=O)CCc1nc2ccccc2s1)Nc1ccc(S(=O)(=O)N2CCOCC2)cc1
16µM* | O=S(=O)(N/N=C\c1ccc(-c2ccccc2Cl)o1)c1ccccc1
-3% | Cc1ccc(NC(=O)C2CCN(S(=O)(=O)c3c(C)[nH]c(=O)[nH]c3=O)CC2)cc1
